H5N1 CPE: antiviral screen in MDCK cells, H5N1 avian flu; cytopathic effect, luminescence, 72 h; hits give high values; no value below 0 was filed and about half of the inactive calls have no number; reference of the scale not given here; inhibition, % at 50 µM; 0.07% of 96,000 active; in the data active = inhibition above about 25%
* marks the source's active call; other numbers are inactive results; i = inactive. Not all compounds are listed, so the mix of outcomes need not match the whole.

| structure | H5N1 CPE |
| --- | --- |
| CS(=O)(=O)Cc1nc2ccccc2oc1=O | i |
| CC1(C)CC(N2CCN(c3ccccc3)CC2)=CC(=[N+]2CCCC2)C1 | 0.2 |
| Cc1cc(C)nc(SCc2nnc(SCC(=O)N3CCCc4ccccc43)n2C)n1 | 1.0 |
| COC(=O)CSc1nnc([C@H](Cc2ccccc2)NC(=O)OC(C)(C)C)o1 | 0.7 |
| CCCCC(=O)NC(NC(=S)N1CCOCC1)C(Cl)(Cl)Cl (configuration not stated) | i |
| COc1ccc(NC(=O)C2CCCN(c3c4c(nc5ncnn35)CCC4)C2)cc1OC (configuration not stated) | 1.1 |
| O=S(=O)(/N=C/c1ccccc1O)c1cccs1 | 0.1 |
| Cc1ccc(NS(C)(=O)=O)c(C(=O)c2ccccc2)c1 | 0.7 |
| Cc1cc(C)n2nc(S(=O)(=O)NCCc3ccccc3)nc2n1 | 0.3 |
| COc1cc2[nH]c(=S)n(NC(=O)c3ccccc3)c(=O)c2cc1OC | 0.3 |
| COc1ccc(S(=O)(=O)Nc2ccc3c(c2)OCCO3)cc1Cl | 0.3 |
| CCc1c(C#N)c(N)nc(SCC(=O)OCc2ccccc2)c1C#N | 0.5 |
| CCN(CC)CCN=Cc1c(O)n(C2CCCCCC2)c(=O)[nH]c1=O | 0.6 |
| O=C(OCc1ccc(Cl)c(Cl)c1)c1cnccn1 | i |
| CC(C)(C)c1ccc(-c2noc(CCC(=O)NCC3CCCO3)n2)cc1 (configuration not stated) | 1.1 |
| COc1ccc(S(=O)(=O)NCc2ccco2)cc1-c1nnc2c3ccccc3c(C)nn12 | 0.6 |
| O=C(CCS(=O)NCc1ccccc1)NCc1ccccc1 (configuration not stated) | 1.7 |
| O=C(N/N=C/c1c[nH]c2ccccc12)c1cc(-c2ccc(-c3ccccc3)cc2)n[nH]1 | i |
| Cc1ccccc1NC(=O)CSc1nc(Nc2ccccc2)nc(N2CCOCC2)n1 | 1.0 |
| Cc1ccc(-c2nc(CS(=O)(=O)CC(=O)NC3CCCCC3C)c(C)o2)cc1 (configuration not stated) | 0.9 |
| O=C(O)c1ccccc1NC(=S)NC(NC(=O)c1ccccc1[N+](=O)[O-])C(Cl)(Cl)Cl (configuration not stated) | 0.5 |
| C=CCn1c(=O)c(C(=O)NCCN(CC)CC)c(O)c2ccccc21 | i |
| Fc1ccccc1NC(=S)N/N=C/c1ccccc1Br | i |
| CCN1CCN(C(=O)CSc2cc(=O)n(CC)c3ccccc23)CC1 | 4.1 |
| CC(=O)OCCCCON1C(=O)c2ccccc2C1=O | 0.7 |

Given with each value named: 4 of the compounds above.
COc1ccc(S(=O)(=O)Nc2ccc3c(c2)OCCO3)cc1Cl
  H5N1 CPE = 0.3
CCc1c(C#N)c(N)nc(SCC(=O)OCc2ccccc2)c1C#N
  H5N1 CPE = 0.5
CCN(CC)CCN=Cc1c(O)n(C2CCCCCC2)c(=O)[nH]c1=O
  H5N1 CPE = 0.6
O=C(OCc1ccc(Cl)c(Cl)c1)c1cnccn1
  H5N1 CPE = i

Continuation.
| structure | H5N1 CPE |
| --- | --- |
| CN(C)c1ccnc(Oc2ccc(F)cc2)c1C#N | i |
| C/C(CC(=O)Nc1ccccc1C)=N\NC(=O)Cc1csc(N)n1 | i |
| O=C(NCCN=C1NS(=O)(=O)c2ccccc21)c1ccco1 | i |
| CC(=O)C1=C(O)C(=O)N(Cc2ccco2)C1c1ccc(F)cc1 (configuration not stated) | 0.5 |
| Cn1c(=O)c2ncn(CC(=O)Nc3ccc4c5c(cccc35)CC4)c2n(C)c1=O | i |
| CC(=O)OC1c2ccccc2C(=O)N1Cc1ccccc1 (configuration not stated) | 0.5 |
| CCCCC1(CCCC)C(=O)NC(=Nc2cccc(C)c2)NC1=O | 7.0 |
| COC(=O)C1=C(CN2CCCc3ccccc32)NC(=O)NC1c1ccc(F)cc1 (configuration not stated) | i |
| O=C(Nc1cnc2ccccc2c1)N1CCCCC1 | 1.3 |
| CCOc1ccc(-c2cc(CCCC(=O)NCCc3ccc(OC)c(OC)c3OC)no2)cc1 | 1.2 |
| CC(C)(C)C(=O)Nc1nnc(SCc2ccc(F)cc2)s1 | 0.3 |
| CCOC(=O)Cn1nnc2c(sc3nc4c(c(-c5ccccc5)c32)CCC4)c1=O | 1.4 |
| Cc1cccc(-n2c(=O)[nH]c3c(C(N)=O)nc(-c4ccccc4Cl)nc32)c1 | 1.0 |
| Cc1ccc(OCCn2cc(Br)c(=O)[nH]c2=O)cc1 | 0.4 |
| Cc1cccc(NC(=O)Cc2ccc(F)cc2)c1 | i |
| CCCCNC(=O)Nc1cc(C(=O)OC)ccc1Cl | i |
| COC(=O)C1=C(C)N(Cc2ccc(C)cc2)C(=O)/C1=C\c1ccc(O)c(OC)c1 | i |
| Cc1nnc(NC(=O)CSc2ccccn2)s1 | 0.9 |
| N#C/C(=C\c1ccccc1Cl)C(=O)NC(=O)Oc1ccccc1 | 0.2 |
| CCOc1ccccc1NC(=O)CSc1nnc(CNC(=O)COc2ccc(Cl)cc2)o1 | 1.5 |
| CCCOc1ccccc1Nc1nnc(C)c(=O)[nH]1 | 0.1 |
| CCCCCNC(=O)CN(c1ccc2c(c1)OCO2)S(C)(=O)=O | 0.9 |
| Cc1c(C(=O)N2CCOCC2)[nH]c2ccc(OCc3ccccc3)cc12 | i |
| Cc1ccc(O)c(-c2cc(C(F)(F)C(F)F)nc(-c3ccccc3)n2)c1 | 0.2 |
| COc1ccccc1-c1nnc(NC(=O)c2ccc(S(=O)(=O)N(C)Cc3ccccc3)cc2)o1 | 2.1 |

Brought forward from above: five compounds, followed by the next part.
| structure | H5N1 CPE |
| --- | --- |
| CCCOc1ccccc1Nc1nnc(C)c(=O)[nH]1 | 0.1 |
| CCCCCNC(=O)CN(c1ccc2c(c1)OCO2)S(C)(=O)=O | 0.9 |
| Cc1c(C(=O)N2CCOCC2)[nH]c2ccc(OCc3ccccc3)cc12 | i |
| Cc1ccc(O)c(-c2cc(C(F)(F)C(F)F)nc(-c3ccccc3)n2)c1 | 0.2 |
| COc1ccccc1-c1nnc(NC(=O)c2ccc(S(=O)(=O)N(C)Cc3ccccc3)cc2)o1 | 2.1 |
| COc1ccc(CCNc2oc(Cc3cccc4ccccc34)nc2C#N)cc1OC | i |
| CCOC(=O)c1ccc(NC(=O)NC2CC3CCC(C2)N3Cc2nnnn2Cc2ccco2)cc1 (configuration not stated) | 1.5 |
| C=C(C)C1CC=C(C)/C(=N/NC(=O)c2ccc(NC(=O)c3cccc(C)c3)cc2)C1 (configuration not stated) | i |
| CCOC(=O)N1CCN(C(=O)c2ccc(CS(=O)(=O)c3c(Cl)cccc3Cl)o2)CC1 | 1.2 |
| CCc1nnc(NC(=O)Cn2c(=O)oc3ccccc32)s1 | 0.8 |
| S=C(NCc1ccc(Cl)cc1)NC12CC3CC(CC(C3)C1)C2 | 5.9 |
| O=C(NCn1cnccc1=O)c1ccccc1 | i |
| Cc1ccc(-c2nnnn2CS(=O)(=O)c2ccccc2)cc1 | 0.6 |
| O=C(Nc1ccc(Cl)cn1)c1cccc(F)c1 | i |
| CC(C)(C)NC(=O)CSc1nnc(-c2ccncc2)n1Cc1ccccc1 | 3.1 |
| Cn1c(=O)c(=O)n(C)c2cc(S(=O)(=O)N3CCN(C4CCCCC4)CC3)ccc21 | 2.2 |
| COC(=O)Cc1c(C)nc2nc(NCc3cccc([N+](=O)[O-])c3)[nH]n2c1=O | 0.2 |
| O=S(=O)(c1ccc(Cl)c(Cl)c1)c1snnc1-c1ccccc1 | i |
| CC(NC(=O)c1cccc(F)c1)C(c1cccs1)N1CCN(C)CC1 (configuration not stated) | 0.6 |
| COCC(=O)N(Cc1cc2ccc(C)cc2[nH]c1=O)c1ccc(OC)cc1 | i |
| CCCc1cc(=O)[nH]c(SCC(=O)N(C)C2CCS(=O)(=O)C2)n1 (configuration not stated) | 1.3 |
| CNc1nnc(-c2ccncc2)s1 | i |
| CCC(C)(C)NC(=O)Cc1ccccc1OC | i |
| Clc1ccc2c(c1)C1=C(C(c3ccncc3)O2)C(c2ccc(Br)cc2)n2ncnc2N1 (configuration not stated) | 1.1 |
| COc1ccc(OC)c2[nH]c(=O)c(CCNS(=O)(=O)c3ccc(Cl)cc3)cc12 | 0.8 |
| COC(=O)c1cnn2c3c(c(C)nc12)CCCC3 | 1.8 |
| O=C(CSc1nnc(Cc2ccccc2)o1)NC1CCCCC1 | i |
| O=C(c1cncc(Br)c1)N1CCc2ccccc2C1 | i |
| Cc1nc2c(sc3nc4c(cc32)COC(C)(C)C4)c(=O)o1 | 0.1 |
| CCn1nc(CC(=O)Nc2nnc(CC(=O)N3CCOCC3)s2)c2ccccc2c1=O | i |
| COc1ccc(N(CC(=O)NCc2ccc3c(c2)OCO3)S(=O)(=O)c2c(C)nn(C)c2C)cc1 | 0.2 |
| CCCOc1ccc(C(=O)Nc2ccc(C)cc2[N+](=O)[O-])cc1 | 0.7 |
| Cc1cc(C)n(/N=C\c2c(O)ccc3ccccc23)c(=O)c1C(N)=O | i |
| Cc1ccc(C)c(N2CCN(C(=O)CC3Sc4ccccc4NC3=O)CC2)c1 (configuration not stated) | 0.1 |
| Cc1csc(SCC(=O)c2ccc(S(=O)(=O)N3CCOCC3)cc2)n1 | 0.7 |
| CCN(CC(=O)Nc1ccccc1C(=O)OC)S(=O)(=O)c1ccc(OC)cc1 | 1.0 |
| Oc1ccccc1-c1nc(NCc2ccco2)c2ccccc2n1 | 0.6 |
| O=C(NCCSc1ccccc1)c1ccco1 | i |
| COC(=O)/C(=C\Nc1ccc(Cl)c2ccccc12)c1ncc(C(F)(F)F)cc1Cl | 0.1 |
| COc1ccc(-c2cc(-c3ccccc3O)[nH]n2)cc1 | 9.7 |
| CCOC(=O)C1=C(C)Nc2ccccc2N=C1NC(=O)c1cccc(S(=O)(=O)N(C)C)c1 | i |
| Cc1nc2c(o1)CCc1ccccc1C2N1CCN(C)CC1 (configuration not stated) | i |
| O=C(CN1C(=O)NC(Cc2ccccc2)C1=O)Nc1ccccc1 (configuration not stated) | i |
| CCCCC(=O)Nc1ccc(N2CCN(S(C)(=O)=O)CC2)cc1 | i |
| COc1cc(OC)cc(C(=O)Nc2ccc(-n3cnnn3)c(C)c2)c1 | i |
| CCOC(=O)c1[nH]c2cc3c(cc2c1NC(=O)CN1CCC2(CC1)OCCO2)OCO3 | 1.0 |
| Cn1c(C(=O)NCCCN2CCN(c3ccccc3F)CC2)cc2c(=O)[nH]c3ccccc3c21 | i |
| CCN(CC)S(=O)(=O)c1cccc(-c2nnc(SCC(=O)NC)n2CCc2ccccc2)c1 | 2.9 |
| COCCCN1C(=O)c2ccc(C(=O)Nc3cccc(OC)c3)cc2C1=O | i |
| O=C(CN1CCC(n2nnc3cc(C(F)(F)F)ccc32)CC1)Nc1ccc2c(c1)CCC2 | 0.2 |
| COc1cccc(/C=N/NC(=O)c2ccc(COc3ccc(Cl)cc3Cl)o2)c1 | 3.5 |
| Cc1ccc(C(=O)NCc2ccc(Cl)c(Cl)c2)o1 | 0.7 |
| O=S(=O)(c1ccccc1)N1CCN(c2nc3ccccc3s2)CC1 | i |
| Cc1ccccc1OC(=O)Cn1c(C(F)(F)F)nc2ccccc21 | i |
| Cc1ccc(S(=O)(=O)NC(CC(=O)NCc2ccco2)c2ccco2)cc1 (configuration not stated) | i |

The list continues.
| structure | H5N1 CPE |
| --- | --- |
| COc1ccc(S(=O)(=O)Nc2cc3c4c(oc3c3ccccc23)CC(C)(C)CC4=O)cc1 | 0.7 |
| O=C(NCc1ccccc1)NC1(C(=O)N2CCN(c3ncccn3)CC2)CCCCC1 | 0.5 |
| Cc1ccc(NC(=O)CCC(=O)NNC(=O)Cc2ccccc2)cc1C | i |
| CCCCOC(=O)Nc1nc(CC(=O)OCC)cs1 | 0.2 |
| CSc1nc2c(c(=O)[nH]1)C(c1cccs1)C1=C(CCCC1=O)N2 (configuration not stated) | i |
| CN1OC2C(=O)N(c3ccccc3)C(=O)C2C1c1ccc(F)cc1 (configuration not stated) | 0.6 |
| CCOC(=O)c1ccc(C(=O)OCC)nc1 | i |
| O=C(NCc1ccccn1)c1ccc(N2CCCC2=O)cc1 | 0.6 |
| CC1CCN(C(=O)CN(C2CCCCC2)S(C)(=O)=O)CC1 | i |
| C=CCc1c(O)nc(SCC(=O)c2ccccc2)[nH]c1=O | i |
| CC(NCc1cccn1C)c1ccccc1 (configuration not stated) | 0.2 |
| COc1ccc2cc(CCNC(=O)c3c(-c4ccccc4Cl)noc3C)c(=O)[nH]c2c1 | 1.4 |
| CCOC(=O)CN1CC23C=CC(O2)C(C(=O)Nc2ccc(OC)cc2OC)C3C1=O (configuration not stated) | 0.1 |
| CCOc1cccc(OCCOCCN(C)Cc2ccccc2)c1 | 0.6 |
| CCCNc1ncnc2nc[nH]c12 | 0.6 |
| COc1ccc(-c2cc(N)n(S(=O)(=O)c3ccc(C)cc3)n2)c(OC)c1 | i |
| CN1Cc2c(N3CCOCC3)nc(SCc3ccccc3)c(C#N)c2CC1(C)C | i |
| Cc1ccc2c(C(=O)CN3CCCCC3CCO)c(C)[nH]c2c1 (configuration not stated) | 0.2 |
| CO/N=C/NC(=O)N1OC[C@@H]2COc3ccc4ccccc4c3[C@@H]21 | 1.3 |
| COC(=O)c1cccc(NC(=O)c2cccs2)c1C | 1.6 |
| O=C1NCN(c2ccccc2)C12CCNCC2 | 0.0 |
| Cc1ccc(N(CC(=O)NC2CCCCCC2)S(=O)(=O)c2c(C)nn(C)c2C)cc1 | 0.2 |
| CN(C)CCCNC(=O)CCc1nc2ccccc2c(=O)[nH]1 | i |
| C/C(NC1CCCCC1)=C(/C#N)C(=O)NCCN1CCOCC1 | i |
| CCc1ccc2[nH]c(=O)c(CN(CCCN3CCOCC3)C(=O)Nc3ccc(F)cc3)cc2c1 | i |
| O=S(=O)(c1cccs1)N1CCN(CC(O)COc2cccc(Br)c2)CC1 (configuration not stated) | i |
| O=C1CC(N2CCN(C(c3ccccc3)c3ccccc3)CC2)C(=O)N1 (configuration not stated) | i |
| N#Cc1ccc(C(c2nnnn2CCc2ccccc2)N2CCCCCC2)cc1 (configuration not stated) | 0.1 |
| Cn1ccnc1SCC(=O)Nc1ccc2c(c1)COC2=O | 0.2 |
| CCc1ccc2[nH]c(O)c(N=Nc3nc(-c4ccccc4)cs3)c2c1 | 0.9 |
| O=C(Nc1nc2c(s1)CCCC2)C1CCCN1C(=O)c1cccs1 (configuration not stated) | i |
| CC1=C(C)[N+](=O)C2CCCCC2N1[O-] (configuration not stated) | 0.6 |
| CC(=NCCN1CCCCC1)c1c(O)n(Cc2ccccc2)c(=O)[nH]c1=O | i |
